Assay outcomes as filed in PubChem BioAssay.
RE007 growth inh: less growth of the S. pombe RE007 Vpr strain; S. pombe RE007 Vpr strain, BacTiter-Glo ATP luminescence, 24 h; control for the full effect not named in the record; Potency, µM (titrated, usually from 92.2 µM), for the others: at the highest dose activity change, negative = less growth; 0.21% of 360,000 active; AID 651644; active = well fitted falling curve with a large enough effect; inconclusive = small, poorly fitted or top-dose-only effect; inactive = no such curve, though single readings can be large or run the other way;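 note: % is set by controls: 0 for no effect and ±100 for the full control effect; nearly all actives have a fitted effect of over 50% in size; the assay follows cell death caused by Vpr and the record does not say whether a fall means rescue or toxicity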
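Fission yeast RE007 carrying one integrated HIV-1 vpr copy, seeded at OD 0.01 in PMG+AL medium with 23 nL pinned compound. Grown 24 h at 30 degrees; viability read by BacTiter-Glo luminescence after 5 min.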
SARS PLP yeast: inhibitors of SARS-CoV papain-like protease in yeast; S. cerevisiae expressing SARS-CoV PLpro, growth rescue; control for the full effect not named in the record; Potency, µM (titrated, usually from 32.9 µM), for inactives: top-dose activity, positive = growth rescue; 0.19% of 330,000 active; AID 485353; note: 0% is about no effect; nearly all actives have a fitted effect of over 55% in size; growth read by luminescence after 48 h
2A StopGo: lowers the luciferase signal of an FMDV 2A StopGo reporter; 1.2% of 410,000 active; human cells with a luciferase reporter of 2A StopGo recoding; control for the full effect not named in the record; Potency, µM (titrated, usually from 57.9 µM), inactives show at the top dose signal change, negative = less light; active = well fitted falling curve with a large enough effect; inconclusive = small, poorly fitted or top-dose-only effect; inactive = no such curve, though single readings can be large or run the other way; tested in HEK293T cells; note: % is set by controls: 0 for no effect and ±100 for the full control effect; nearly all actives have a fitted effect of over 45% in size; luciferase light after 4 h
Lassa entry inh: inhibitors of Lassa virus binding or cell entry; Lassa virus pseudotype entry inhibition, cell reporter; control for the full effect not named in the record; Potency, µM (series often up to 37.9 µM), inactives show at the highest dose activity change, negative = inhibition, most hits filed as inhibitors; 1.2% of 300,000 active; AID 540256; active means well fitted inhibition curve with a large enough effect; inconclusive means small, poorly fitted or top-dose-only effect, or effect the other way; inactive means flat fitted curve, though single readings scatter; tested in HEK293 cells; note: % is set by controls: 0 for no effect and ±100 for the full control effect; nearly all actives have a fitted effect of over 50% in size; luciferase read-out
Cruzain Triton: blocks cruzain activity in presence of Triton detergent. Potency, µM, for inactives: max response, negative = inhibition, hits mostly inhibitors. 0.43% of 200,000 active. P25779. purified cruzain, Z-FR-AMC fluorescence, 0.01% Triton; active = well fitted curve in the direction sought with a large enough effect; inconclusive = small, poorly fitted or top-dose-only effect, or another doubt; inactive = no such curve, though single readings can be large; an effect the other way counts as inactive or inconclusive;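 note: plate controls were neutral wells for no effect and buffer without enzyme for full effect; nearly all actives have a fitted effect of over 40% in size; top concentration of the series not given in the record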
Target sequence (P25779 123-467 limits assumed): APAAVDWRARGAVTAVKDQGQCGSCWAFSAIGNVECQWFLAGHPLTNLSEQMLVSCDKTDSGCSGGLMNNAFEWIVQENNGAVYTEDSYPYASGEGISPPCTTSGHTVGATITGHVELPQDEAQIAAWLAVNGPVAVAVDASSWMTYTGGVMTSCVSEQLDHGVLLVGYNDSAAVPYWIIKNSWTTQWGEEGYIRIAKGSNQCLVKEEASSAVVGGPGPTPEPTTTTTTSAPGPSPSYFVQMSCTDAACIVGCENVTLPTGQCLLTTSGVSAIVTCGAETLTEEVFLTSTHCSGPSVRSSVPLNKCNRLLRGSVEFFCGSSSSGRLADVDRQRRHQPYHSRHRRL
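Purified cruzain (1.5 nM final) was preincubated with compounds for 15 min at room temperature in 100 mM sodium acetate pH 5.5, 5 mM DTT, 0.01% Triton X-100. Reaction started with 2 uM Z-FR-AMC; AMC fluorescence change over 60 s gave activity.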
Cruzain inh noDet: blocks cruzain activity in detergent-free assay; AID 1476; purified cruzain, Z-FR-AMC fluorescence, no detergent; 2.3% of 200,000 active; Potency, µM, without a hit: max response, negative = inhibition, actives largely listed as inhibitors; P25779; active = well fitted curve in the direction sought with a large enough effect; inconclusive = small, poorly fitted or top-dose-only effect, or another doubt; inactive = no such curve, though single readings can be large; an effect the other way counts as inactive or inconclusive;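 note: plate controls were enzyme without inhibitor for no effect and buffer without enzyme for full effect; nearly all actives have a fitted effect of over 40% in size; top concentration of the series not given in the record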
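Purified cruzain at 1.5 nM, pre-incubated 15 min with compound at room temperature in 100 mM sodium acetate pH 5.5, 5 mM DTT, 0.00005% Triton X-100. Reaction started with 2 uM Z-FR-AMC; AMC fluorescence increase over 60 s gives rate.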
NS1 function inh: inhibitors of influenza NS1 protein function; 0.4% of 270,000 active; S. cerevisiae slowed by influenza A NS1, growth recovery by OD600; Potency, µM (doses to about 46.1 µM), for inactives: at the top dose activity, positive = more growth; AID 2326; note: actives are rising curves; nearly all actives have a fitted effect of over 50% in size
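S. cerevisiae expressing influenza A NS1, grown in glucose, washed, then diluted 1:100 into pH 6.0 -URA galactose medium with 23 nl compound. Growth recovery read as OD600; NS1-free strain serves as control.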
MARV entry inh: inhibitors of Marburg virus binding or cell entry; Marburg virus pseudotyped entry inhibition, cell reporter; control for the full effect not named in the record; about a third of the inactives were read at about 46 µM; Potency, µM (series often up to 37.8 µM), inactives show at the highest dose activity change, negative = inhibition, usual class: inhibitors; 1.8% of 300,000 active; AID 540276; active = well fitted inhibition curve with a large enough effect; inconclusive = small, poorly fitted or top-dose-only effect, or effect the other way; inactive = flat fitted curve, though single readings scatter; tested in HEK293 cells; about a fifth of its hits are not listed in these tables; note: % is set by controls: 0 for no effect and ±100 for the full control effect; luciferase read-out
* marks the source's active call; other numbers are inactive results; ? = inconclusive; · = no result given; & = joins results of further samples; [ ] = another dose, or the depositor's remark. Unless noted, calls come from the whole dose curve; as a rule, active means well fitted rising curve with a large enough effect; inconclusive means small, poorly fitted or top-dose-only effect; inactive means no such curve, though single readings can be large or run the other way. Potency is the fitted concentration of half-maximal effect.

SMILES	RE007 growth inh	SARS PLP yeast	2A StopGo	Lassa entry inh	Cruzain Triton	Cruzain inh noDet	NS1 function inh	MARV entry inh
CN(CC(=O)NCCc1ccc(F)cc1)Cc1ccccc1	5.4%	2.9%	0.0%	7.8%	·	·	4.4%	-16.1%[46.1 µM]
COc1ccc(-c2csc(N3CCN(Cc4ccc5c(c4)OCO5)CC3)n2)cc1	-3.3%	2.4%	-19.4%	-29.6%[14.3 µM]	-6.5%	?	4.2%	17.2%
Cc1ccc(-c2cc(C(=O)Oc3ccccc3)c3cc(C)ccc3n2)cc1	·	·	-9.0%	18.7%[46.1 µM]	-4.3%	10.9%	·	18.8%[46.1 µM]
O=C(c1cccs1)N1CCN(C(=O)C(c2ccccc2)c2ccccc2)CC1	17.8%	-2.1%	?	6.8%	-3.3%	10.4%	-11.8%	1.2%
CCOC(=O)CSc1nnc(-c2ccc([N+](=O)[O-])cc2)o1	-11.7%	-1.0%	-9.1%	5.8%	·	·	-0.9%	20.4%[46.1 µM]
CC(C)C(c1nnnn1C1CCCC1)N1CCN(c2ccccc2F)CC1 (configuration not stated)	18.7%	5.3%	?	-0.8%	-3.6%	-5.5%	-24.3%	-27.2%
Cc1nc2cc(C(F)(F)F)ccc2n1CCNc1nc(-c2ccc(F)cc2)cs1	-5.2%	-1.6%	17.0%	·	·	·	16.4%	·
CC(=O)Oc1ccc(-c2ccc(C(=O)Nc3cccc(S(=O)(=O)N4CCOCC4)c3)cc2)cc1	-6.6%	3.0%	?	?	·	·	-19.7%	?
CCC(=O)NC(Nc1cc(C)cc(C)n1)(C(F)(F)F)C(F)(F)F	23.2%	8.1%	-4.0%	18.0%	-1.8%	13.9%	0.0%	1.3%
c1ccc(COC2CCCN(Cc3nc(-c4cccs4)no3)C2)nc1 (configuration not stated)	6.9%	0.2%	-9.1%	-19.3%	·	·	3.6%	?
CCC(CC)c1nnc(NC(=O)c2cccc(S(=O)(=O)N3CCOCC3)c2)s1	-11.9%	6.2%	?	-19.2%	·	·	·	17.9%
CCOc1ccc(NC(=O)c2cc(C)nc3c2c(C)nn3-c2cccc(F)c2)cc1	·	·	-12.0%	?	-1.0%	-6.4%	·	·
Cc1ccc(-c2nc(SCC(=O)N(C)c3c(N)n(Cc4ccccc4)c(=O)[nH]c3=O)n[nH]2)cc1	-5.0%	11.3%	-0.4%	20.1%[46.1 µM]	·	·	-3.4%	-1.6%[46.1 µM]
CCCNC(=O)OC[C@H]1O[C@H](CCO/N=C/C[C@@H]2C=C[C@H](OC(C)=O)[C@@H](COC(C)=O)O2)C=C[C@@H]1Oc1ccc(OC)cc1	·	10.6%	·	?	-3.2%	?	-36.4%	?
Cc1nn2cc(-c3ccc(N)cc3)nc2s1	-1.8%	-0.1%	28.6%	?	-1.2%	-5.1%	0.2%	-9.9%
COc1ccccc1N1CCN(C(=O)c2ccc3[nH]c4c(c3c2)CCCC4)CC1	-10.5%	-7.6%	-0.1%	?	-7.0%	5.8%	-10.1%	?
O=C(Nc1sc(-c2ccccc2)cc1C(=O)O)c1ccccc1	?	-6.6%	-0.3%	·	·	·	-84.8%	·
COC(=O)C(Cc1ccccc1)NC(=O)c1cccc(S(=O)(=O)N(C)C)c1 (configuration not stated)	-6.0%	0.4%	71.9%[activator]	27.3%	·	·	14.6%	3.3%[46.1 µM]
Cc1onc(-c2ccccc2)c1C(=O)Nc1ccc(S(=O)(=O)NC2=NCCCCC2)cc1	-18.1%	11.3%	31.4%[activator]	-3.6%	-0.2%	4.1%	-8.0%	25.5%
CC1=[N+](C)c2ccc3ccccc3c2C1(C)C	-2.0%	-10.6%	?	?	-0.6%	-12.9%	8.4%	?
O=C1NC2(CCCCC2)N=C1c1ccccc1	-12.5%	2.8%	-2.2%	19.2%[14.3 µM]	4.5%	4.5%	-13.4%	?
CCCC(=O)N1c2ccccc2[C@@H](N(C(C)=O)c2ccccc2)C[C@H]1C	2.9%	-0.8%	-23.4%	-12.8%	-1.0%	19.1%	-4.3%	?
CCN(CC)CCCNC(=O)c1ccc2c(Cl)c3c(nc2c1)CCCC3	-18.1%	0.2%	-25.3%&-16.4%	?	-4.7%	-8.8%	·	?
C#CCOC(=O)CCCNc1ccc([N+](=O)[O-])cc1[N+](=O)[O-]	-8.6%	-19.1%	-0.8%	2.9%	-6.8%	-1.7%	0.8%	?
CCCCNC(=S)NNC(=O)c1csc(C)c1	17.2%	-15.4%	40.4%[activator]	20.5%	2.2%	12.5%	7.4%	2.6%
Cc1ccc(S(=O)(=O)CC(=O)Nc2nnc(C)s2)cc1	2.7%	6.2%	-1.9%	-1.6%[46.1 µM]	·	·	7.2%	-0.9%[46.1 µM]
CCOc1ccc(CCNC(=O)c2ccc(CS(=O)(=O)c3ccccc3C)o2)cc1OCC	·	·	?	?	-3.4%	15.5%	·	0.1%[46.1 µM]
Cc1ccc(S(=O)(=O)N2CCCCC2)cc1NC(=O)C1CC1	5.6%	3.6%	1.9%	-11.5%	·	·	·	-5.9%
COC(=O)c1ccc(Oc2nc(Nc3ccc(F)cc3)nc(N3CCCC3)n2)cc1	26.8%	1.3%	-16.6%	-4.9%	-2.4%	-11.0%	-42.7%	-16.6%
CCCCNS(=O)(=O)c1cccc(S(=O)(=O)N2CCCC2)c1	-1.4%	-0.4%	30.4%[activator]	?	3.3%	10.9%	-5.4%	-12.7%[46.1 µM]
O=C(NC1CCCCC1)C(c1ccccc1)N(Cc1ccco1)C(=O)Cn1cnc2ccccc21 (configuration not stated)	-9.0%	3.3%	-5.8%	-16.9%	-8.5%	1.5%	-17.6%	-27.6%
COc1ccccc1-c1nnn(C/C(N)=N/O)n1	-22.1%	-2.2%	-8.0%	-9.7%	0.6%	-5.5%	12.8%	?
COc1ccc(CCNC2CCCCCC2)cc1	-7.4%	3.7%	-1.5%	?	·	·	21.5%	?
Cc1c(C)n(C(=O)CN2CCN(c3ccccn3)CC2)c2ccccc12	5.5%	1.3%	31.6µM*	8.6%	-6.0%	-4.9%	-50.8%	?
CC(=O)N=c1sc2nc3ccccc3nc2n1N(C(C)=O)C(C)=O	-30.0%	1.1%	-4.8%	-24.2%	-7.0%	-14.4%	-9.8%	-2.8%
O=C(COC(=O)c1ccc([N+](=O)[O-])cc1Cl)Nc1cccnc1Cl	-4.4%	-0.5%	-10.5%	-5.9%	·	·	·	2.2%[46.1 µM]
COc1ccc(S(=O)(=O)N2CCCCC2)cc1NS(=O)(=O)c1ccccc1F	-6.8%	0.0%	24.4%	?	·	·	·	14.8%[14.2 µM]
O=C(NN=C1CCN(Cc2ccccc2)CC1)C(O)c1ccccc1 (configuration not stated)	1.2%	19.3%	-9.0%	8.3%	1.0%	0.0%	5.0%	13.8%
COc1ccc(CN2CC(C(=O)N3CCOCC3)CC2=O)cc1 (configuration not stated)	1.1%	6.6%	4.8%	-3.9%	0.2%	1.8%	-3.3%	2.0%
CCOc1ccc(OCC(=O)OCc2csc(CC(=O)Nc3ccccc3C)n2)cc1	5.1%	-0.7%	-9.5%	19.6%	·	·	·	13.5%[46.1 µM]
O=C(NCCOc1ccc(F)cc1)C1CCC(=O)N(CCN2CCOCC2)C1 (configuration not stated)	-15.6%	0.5%	8.8%	4.5%	·	·	7.2%	-0.2%
Cn1c(NC(=O)C(C)(C)Oc2ccc(Cl)cc2)cc(=O)n(C)c1=O	-3.9%	0.1%	-25.0%	·	-3.2%	3.1%	?	·
CCOC(=O)N1CCN(c2cc(=O)n(Cc3ccc(F)cc3)c(=O)[nH]2)CC1	11.8%	1.9%	8.2%	-17.5%	-3.1%	10.3%	-4.9%	12.5%
c1ccc(CCn2c(SCc3ccccc3)nnc2-c2ccncc2)cc1	-7.8%	-45.4%	0.1%	1.0%	4.3%	26.4%	-17.0%	0.7%
CCN(CC)S(=O)(=O)c1ccc(NC(=O)c2cc(=O)[nH]c3ccccc23)cc1	9.1%	2.9%	8.7%	-16.1%[46.1 µM]	·	·	·	-13.8%[46.1 µM]
CCN1CCN(c2ccc(NC(=O)c3cccc4ncccc34)cc2)CC1	-7.4%	-2.5%	16.1%	?	-11.6%	-15.4%	2.8%	11.9%
COc1cccc(NC(=S)N2CCN(C(c3ccccc3)c3ccccc3)CC2)c1	-0.6%	?	0.0%	?	-3.3%	?	2.1%	?
N#CC1(Cc2ccccc2)c2ccccc2C=CN1C(=O)c1ccccc1 (configuration not stated)	5.9%	-8.0%	-16.7%	-25.1%	-5.1%	-26.8%	2.9%	-17.6%
Cc1ccc2[nH]c(O)c(N=NC(N)=S)c2c1	-8.6%	0.6%	-8.1%	·	·	·	3.4%	·
Cc1ccc(/C=[N+](\[O-])c2ccc(N(C)C)cc2)c2nsnc12	3.98µM*	-32.9%	0.0%	?	·	·	·	?
COc1cccc2c1cc1c(=O)n(CC(=O)N3CCC(C)CC3)nc(C)n12	-7.6%	1.7%	-22.4%&-12.2%	·	-2.4%	5.7%	1.4%	?

Three structures already listed, ordered by formula weight, falling:
SMILES	RE007 growth inh	SARS PLP yeast	2A StopGo	Lassa entry inh	Cruzain Triton	Cruzain inh noDet	NS1 function inh	MARV entry inh
CCOC(=O)N1CCN(c2cc(=O)n(Cc3ccc(F)cc3)c(=O)[nH]2)CC1	11.8%	1.9%	8.2%	-17.5%	-3.1%	10.3%	-4.9%	12.5%
COc1cccc2c1cc1c(=O)n(CC(=O)N3CCC(C)CC3)nc(C)n12	-7.6%	1.7%	-22.4%&-12.2%	·	-2.4%	5.7%	1.4%	?
O=C(Nc1sc(-c2ccccc2)cc1C(=O)O)c1ccccc1	?	-6.6%	-0.3%	·	·	·	-84.8%	·
